Screens: PubChem BioAssay, several laboratories
m5-HT2A agonist = mouse HTR2A agonism via beta-arrestin recruitment; P35363; CHO-K1 mHTR2A beta-arrestin complementation, luminescence; percent of 30 µM serotonin response; activation, % at 7.6 µM; hit rate 0.66% among 360,000; AID 624169;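 active = activation above a run cutoff, the mean activation of all tested compounds plus 3 SD, cut at about 14% in these data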;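 note: 0% = plate median of compound wells and 100% = 30 µM serotonin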
PDI turbidity = blocks human protein disulfide isomerase activity | P07237 | hit rate 0.052% among 350,000 | AID 588391 | inhibition, % at 10 µM | PDI insulin aggregation turbidity, A650, 90 min;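 active = mean inhibition across replicates of 30% or more, whatever share of single replicates reach that level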;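 note: absorbance from insulin aggregation driven by PDI reduction with DTT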
Cardio protect = protects H9c2 cardiomyocytes from peroxide injury. H2O2 injury protection, ATPLite, 2 h. protection from H2O2 cell death, % at 20 µM. hit rate 0.63% among 360,000;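 active = compounds giving at least 50% protection of heart cells from peroxide-induced death in the single-dose screen, raw or plate-pattern-corrected value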;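 note: 0% = DMSO wells with peroxide and 100% = DMSO wells without peroxide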
ABCB6 inh 2 = inhibitors of human ABC transporter ABCB6. K562-ABCB6 porphyrin accumulation, flow cytometry, 1 h; hits give low values. fluorescence ratio to DMSO, % at 10 µM. hit rate 0.19% among 360,000. AID 602162;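 active = fluorescence ratio to DMSO below 75%, the collection mean minus 3 SD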;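 note: signal is porphyrin accumulated inside mitochondria; 100% equals median channel fluorescence of DMSO control wells; lower ratio means ABCB6 inhibition with less porphyrin fluorescence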
Target sequence (Q9NP58 whole entry, looked up): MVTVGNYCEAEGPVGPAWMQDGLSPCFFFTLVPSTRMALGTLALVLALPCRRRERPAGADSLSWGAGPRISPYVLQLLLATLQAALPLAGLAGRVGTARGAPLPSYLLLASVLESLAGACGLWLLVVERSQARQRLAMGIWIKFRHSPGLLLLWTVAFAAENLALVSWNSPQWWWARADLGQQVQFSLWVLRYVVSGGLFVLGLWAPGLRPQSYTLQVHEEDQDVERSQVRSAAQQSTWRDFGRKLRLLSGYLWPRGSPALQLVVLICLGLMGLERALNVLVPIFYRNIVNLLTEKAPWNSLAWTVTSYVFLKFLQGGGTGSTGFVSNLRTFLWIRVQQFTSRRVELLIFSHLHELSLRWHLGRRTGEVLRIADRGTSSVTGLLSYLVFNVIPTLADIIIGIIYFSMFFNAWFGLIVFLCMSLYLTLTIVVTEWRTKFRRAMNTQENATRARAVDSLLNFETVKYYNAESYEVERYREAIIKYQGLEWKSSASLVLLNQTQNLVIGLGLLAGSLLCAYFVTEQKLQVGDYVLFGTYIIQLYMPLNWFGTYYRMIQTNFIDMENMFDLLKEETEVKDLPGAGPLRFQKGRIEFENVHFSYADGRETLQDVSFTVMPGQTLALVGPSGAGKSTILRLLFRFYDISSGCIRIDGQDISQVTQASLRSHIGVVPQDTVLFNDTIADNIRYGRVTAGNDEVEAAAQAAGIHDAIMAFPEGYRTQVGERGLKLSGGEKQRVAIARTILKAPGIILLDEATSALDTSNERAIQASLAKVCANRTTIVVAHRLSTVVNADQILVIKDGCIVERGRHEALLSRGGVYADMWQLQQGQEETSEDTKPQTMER
Glyco luc inh = blocks N-linked glycosylation in D54 reporter cells; AID 588692; D54 ERlucT glycosylation luciferase reporter, 24 h; percent of 100 nM tunicamycin response; hit rate 0.23% among 360,000; reporter increase, % at 12.5 µM;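 active = mean luciferase reporter signal, scaled so untreated is 0 and the glycosylation-blocking control 100, at or above a set limit in every replicate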;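 note: luciferase carries N-glycosylation sites so blocking glycosylation raises the light; 0% = median of neutral control wells and 100% = median of 100 nM tunicamycin wells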
ABHD5 PLIN5 PPI = blocks binding of human ABHD5 to perilipin-5. Q00G26+Q8WTS1. inhibition, % at 4 µM. Split G. princeps luciferase complementation, luminescence, 4 h. hit rate 0.78% among 360,000;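 active = inhibition above the mean inhibition across every tested compound plus 3 SD, cut at about 22% in these data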;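 note: 0% = DMSO only wells and the 100% control is not disclosed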
Starred values were filed as active, the others as inactive; x = not tested or not shown; & = joins results of further samples. A portion of the library (hit frequency here may not be typical).

nr | Molecule | m5-HT2A agonist | PDI turbidity | Cardio protect | ABCB6 inh 2 | Glyco luc inh | ABHD5 PLIN5 PPI
1 | CC(=O)c1nc2ccccc2n1S(=O)(=O)c1ccc(Cl)cc1 | -1 | 4 | -5 | 99 | 2 | 2
2 | CCCCN1C=C(C(=O)OC)C(c2ccccc2Cl)C(C(=O)OC)=C1 | -5 | -2 | 8 | 104 | -2 | 1
3 | CCn1cc(C(=O)O)c(=O)c2cc(F)c(N3CCNCC3)cc21 | 0 | -8 | -9 | 97 | 0 | -6
4 | Cc1ccc(S(=O)(=O)NC(=O)NN2CCCCCC2)cc1 | 2 | -5 | -5 | 104 | 1 | -7
5 | CCC(=O)OCC(=O)[C@@]1(OC(=O)CC)[C@@H](C)C[C@H]2[C@@H]3CCC4=CC(=O)C=C[C@]4(C)[C@@]3(Cl)[C@@H](O)C[C@@]21C | 2 | -1 | 6 | 99 | 7 | -1
6 | CC(=O)O[C@H]1C(=O)[C@@]2(C)[C@H]([C@H](OC(=O)c3ccccc3)[C@]3(O)C[C@H](OC(=O)[C@H](O)C(NC(=O)c4ccccc4)c4ccccc4)C(C)=C1C3(C)C)[C@]1(OC(C)=O)CO[C@@H]1C[C@@H]2O (stereo not given in full) | 2 | -6 | 6 | 99 | 6 | 1
7 | CN1C2CC(OC(=O)C(CO)c3ccccc3)CC1C1OC12 (stereo not given) | -1&-1&-2 | -2&-5&-23 | -1&3&2 | 94&100&97 | 0&-1&0 | -1&-3&2
8 | COc1ccc([C@@H]2Sc3ccccc3N(CCN(C)C)C(=O)[C@@H]2OC(C)=O)cc1 | 4 | -5 | 6 | 96 | 0 | 1
9 | Cc1nc(-c2ccccc2)c(-c2ccccc2)[nH]1 | -1 | -10 | 2 | 105 | 2 | 6
10 | COC1=CC(=O)C[C@@H](C)[C@]12Oc1c(Cl)c(OC)cc(OC)c1C2=O | 4 | -1 | 12 | 94 | -2 | 4
11 | COC(=O)[C@@H]1[C@H]2C[C@H]3c4[nH]c5ccccc5c4CCN3C[C@@H]2CC[C@@H]1O | -6 | -6 | 10 | 106 | 0 | -5
12 | c1ccc(-c2ccc(C(c3ccccc3)n3ccnc3)cc2)cc1 (stereo not given) | 1 | -3 | -20 | 100 | -1 | 11
13 | Cc1[nH]c(=O)c(C#N)cc1-c1ccncc1 | 2 | -8 | 12 | 99 | 1 | -3
14 | Cc1nc2ccc(S(=O)(=O)NCC(=O)NCCN3CCCCCC3)cc2s1 | -1 | 8 | -9 | 113 | 0 | 7
15 | NS(=O)(=O)c1ccc(NC(=O)Nc2ccc(C(F)(F)F)cc2)cc1 | -6 | -3 | -4 | 97 | -4 | 7

Copied from the list:
cpd 5 | ABCB6 inh 2: 99
cpd 3 | PDI turbidity: -8

Excerpt: compounds 9 to 11
nr | Molecule | m5-HT2A agonist | PDI turbidity | Cardio protect | ABCB6 inh 2 | Glyco luc inh | ABHD5 PLIN5 PPI
9 | Cc1nc(-c2ccccc2)c(-c2ccccc2)[nH]1 | -1 | -10 | 2 | 105 | 2 | 6
10 | COC1=CC(=O)C[C@@H](C)[C@]12Oc1c(Cl)c(OC)cc(OC)c1C2=O | 4 | -1 | 12 | 94 | -2 | 4
11 | COC(=O)[C@@H]1[C@H]2C[C@H]3c4[nH]c5ccccc5c4CCN3C[C@@H]2CC[C@@H]1O | -6 | -6 | 10 | 106 | 0 | -5

Continued:
nr | Molecule | m5-HT2A agonist | PDI turbidity | Cardio protect | ABCB6 inh 2 | Glyco luc inh | ABHD5 PLIN5 PPI
16 | N#Cc1c(-c2cccc(Br)c2)cc(-c2ccco2)[nH]c1=O | 3 | 9 | -6 | 99 | 0 | 8
17 | O=C1NC[C@H](c2ccccc2)OC(=O)[C@H](Cc2ccc(F)cc2)CC/C=C/C[C@H]1CC(=O)N(CCO)Cc1ccccc1 | 2 | 7 | 52* | 85 | -1 | 1
18 | Cn1c(=O)c2c(ncn2C)n(C)c1=O | -4 | 1 | 12 | 85 | 1 | -3
19 | CCOc1ccc2nc(S(N)(=O)=O)sc2c1 | 0 | 12 | 2 | 100 | -1 | 5
20 | O=C1NCN(c2ccccc2)C12CCN(CCCC(c1ccc(F)cc1)c1ccc(F)cc1)CC2 | -4 | -7 | -36 | 99 | -1 | 5
21 | CN1C2CCC1CC(OC(=O)C(CO)c1ccccc1)C2 (stereo not given) | -8 | -1 | 12 | 102 | -1 | -4
22 | O=c1[nH]cnc2c1ncn2[C@H]1CC[C@@H](CO)O1 | -1 | 7 | 11 | 92 | 1 | 3
23 | NS(=O)(=O)c1ccc(NC(=O)Nc2ccccc2)cc1 | -6 | 6 | -4 | 98 | 3 | 7
24 | Cc1cccc(N2CCN(C(=O)c3cc4c(=O)n(C)c5ccccc5c4n3C)CC2C)c1 (stereo not given) | -1 | x | 36 | 94 | -6 | 4
25 | Cc1cccc(CN2CCN(C(c3ccccc3)c3ccc(Cl)cc3)CC2)c1 (stereo not given) | -4 | 0 | -41 | 94 | -7 | -22
26 | Nc1ccn([C@@H]2O[C@H](CO)[C@@H](O)C2O)c(=O)n1 (stereo not given in full) | 0 | 3 | -17 | 93 | -4 | 2
27 | CC(C)(C(=O)O)c1ccc(C(O)CCCN2CCC(C(O)(c3ccccc3)c3ccccc3)CC2)cc1 (stereo not given) | 4 | 1 | 1 | 107 | 1 | 4
28 | COc1c(N2C[C@@H]3CCCN[C@@H]3C2)c(F)cc2c(=O)c(C(=O)O)cn(C3CC3)c12 | 0 | 0 | -12 | 88 | -3 | 7
29 | COc1ccc(-c2csc(Nc3ccccn3)n2)cc1 | 0 | -4 | -13 | 91 | -7 | -4
30 | CC(C)(C)c1cc(NC(=O)COC(=O)c2ccccc2O)n(-c2ccccc2)n1 | 5 | 4 | -4 | 100 | -1 | 5

Results in Cardio protect and ABHD5 PLIN5 PPI (5 entries from above):
#	SMILES	Cardio protect	ABHD5 PLIN5 PPI
15	NS(=O)(=O)c1ccc(NC(=O)Nc2ccc(C(F)(F)F)cc2)cc1	-4	7
16	N#Cc1c(-c2cccc(Br)c2)cc(-c2ccco2)[nH]c1=O	-6	8
17	O=C1NC[C@H](c2ccccc2)OC(=O)[C@H](Cc2ccc(F)cc2)CC/C=C/C[C@H]1CC(=O)N(CCO)Cc1ccccc1	52*	1
18	Cn1c(=O)c2c(ncn2C)n(C)c1=O	12	-3
19	CCOc1ccc2nc(S(N)(=O)=O)sc2c1	2	5

Next results follow.
nr | Molecule | m5-HT2A agonist | PDI turbidity | Cardio protect | ABCB6 inh 2 | Glyco luc inh | ABHD5 PLIN5 PPI
31 | CCCCNc1cc(C(=O)O)cc(S(N)(=O)=O)c1Oc1ccccc1 | 4 | 7 | 7 | 105 | 4 | 5
32 | CCCCNC(=O)NS(=O)(=O)c1ccc(C)cc1 | -2 | -2 | 10 | 97 | 0 | -3
33 | CC(=O)Nc1ccc(OCC(O)CNC(C)C)cc1 (stereo not given) | 0 | 7 | 18 | 103 | 2 | -4
34 | CCCCCC(O)C=CC1C(O)CC(O)C1CC=CCCCC(=O)O (stereo not given) | 0 | -12 | -6 | 104 | 23 | 10
35 | Cc1ncc([N+](=O)[O-])n1CCO | 7 | -4 | 7 | 106 | 0 | -4
36 | O=C(NCCN1CCC(n2c(=O)[nH]c3ccccc32)CC1)c1ccc2ccccc2c1 | -10 | x | x | 97 | x | 4

Five entries from above, with values under each structure:
Results follow in this order: m5-HT2A agonist | PDI turbidity | Cardio protect | ABCB6 inh 2 | Glyco luc inh | ABHD5 PLIN5 PPI
[3] CCn1cc(C(=O)O)c(=O)c2cc(F)c(N3CCNCC3)cc21
→ 0 | -8 | -9 | 97 | 0 | -6
[4] Cc1ccc(S(=O)(=O)NC(=O)NN2CCCCCC2)cc1
→ 2 | -5 | -5 | 104 | 1 | -7
[5] CCC(=O)OCC(=O)[C@@]1(OC(=O)CC)[C@@H](C)C[C@H]2[C@@H]3CCC4=CC(=O)C=C[C@]4(C)[C@@]3(Cl)[C@@H](O)C[C@@]21C
→ 2 | -1 | 6 | 99 | 7 | -1
[6] CC(=O)O[C@H]1C(=O)[C@@]2(C)[C@H]([C@H](OC(=O)c3ccccc3)[C@]3(O)C[C@H](OC(=O)[C@H](O)C(NC(=O)c4ccccc4)c4ccccc4)C(C)=C1C3(C)C)[C@]1(OC(C)=O)CO[C@@H]1C[C@@H]2O (stereo not given in full)
→ 2 | -6 | 6 | 99 | 6 | 1
[7] CN1C2CC(OC(=O)C(CO)c3ccccc3)CC1C1OC12 (stereo not given)
→ -1&-1&-2 | -2&-5&-23 | -1&3&2 | 94&100&97 | 0&-1&0 | -1&-3&2
